Sa ugtP lethal: growth inhibition of S. aureus ugtP deletion strain; S. aureus RN4220 ugtP deletion, OD600 growth, 16 h; some inactives read as strong as hits; growth inhibition, % (no concentration beside the values); 330,000 tested, 0.54% active; AID 1259309;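 active = z-score under -3 and OD600 up to 0.15 on both plates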;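 note: plate controls were untreated wells for no effect and antibiotic for full effect; wells of about 80 µL received 100 nL stock; the first replicate is given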
Sa RN4220 lethal: S. aureus RN4220 growth inhibition; OD600, 16 h; inhibition, % (no concentration beside the values); 330,000 tested, 0.33% active;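 active = z-score of -3 or lower and OD600 up to 0.18 on both plates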;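 note: plate controls were untreated cells for no effect and reference antibiotic for full effect; stock transfer was 100 nL into about 80 µL; one replicate is shown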
Mtb hypoxia rep: reduces hypoxia-regulated biosensor signal in M. tuberculosis; M. tuberculosis hypoxia-regulated fluorescent reporter, fluorescence; 300,000 tested, 0.1% active; fluorescence inhibition, % (no concentration beside the values);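 active = 35 to 45% if threefold the growth effect, above 45% if 1.5-fold the growth effect; inactive = the rest, general growth blockers included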;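 note: wells of about 50 µL received 100 nL stock; 0% = vehicle wells and 100% = reference inhibitor wells; whole bacteria with a GFP reporter of the hypoxia response; strong numbers were not always called active; many hits fall short of the cut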
BJeLR viability: kills HRASV12-expressing BJeLR cells. BJeLR (HRASV12) viability, CellTiter-Glo ATP luminescence, 48 h; reference of the scale not given here. inhibition, % (no concentration beside the values). 300,000 tested, 0.17% active. AID 1554;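 active = replicate mean above 50%; inconclusive = above 50% but judged a plate artefact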;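 note: 50 nL library stock added to about 25 µL; numbers are from one replicate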
Bead autofluor: counter-screen for toxin protease inhibitors: compound fluorescence. compound autofluorescence counterscreen, microsphere flow cytometry; stronger effect = higher value. fluorescence intensity (test concentration not listed). 360,000 tested, 3.1% active. AID 624483;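 active = at least 3 SD above the mean of all compounds, about 16000 in these data; inconclusive = too few beads counted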;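 note: 100 nL of 1 mM stock went into each well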
PrP UTR inh: suppresses PrP 5' UTR mRNA reporter expression. cell-based PrP 5' UTR mRNA reporter, plate reader. inhibition, % (no concentration beside the values). 340,000 tested, 0.35% active. AID 488862;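 active = every replicate at 50% or more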;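 note: 0 = median of the neutral control wells; tested in H4 reporter cells; numbers are from one replicate; inactives centre near -14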
Mtb hypoxia rep growth: further read-out of Mtb hypoxia rep, marked with its call; growth inhibition, %; measured here: M. tuberculosis growth (absorbance);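 0% = vehicle and 100% = reference antibiotic; read after six days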
* hit, by the source's call; ? = inconclusive; · = no result given; & = joins results of further samples.

No.	canonical_smiles	Sa ugtP lethal	Sa RN4220 lethal	Mtb hypoxia rep	Mtb hypoxia rep growth	BJeLR viability	Bead autofluor	PrP UTR inh
1	CCn1nc(C)cc1C(=O)Sc1ccc(C)cc1	12.2	5.1	12.3	5.4	-9.1	4250	-14.5
2	CCCCOc1ccc(NC(=O)CN2CCN(C(=O)OCC)CC2)cc1	3.2	1.9	-0.7	13.1	-4.1	3552	-3.8
3	COc1cccc(NC(=O)COC(=O)/C=C/c2ccc(Cl)cc2Cl)c1	-0.5	3.2	3.7	1.4	2.1	2453	-16.0
4	COc1ccc(N2CCN(C(=O)Cn3cnc4c(cnn4-c4ccccc4)c3=O)CC2)cc1	0.1	1.4	5.2	3.3	7.8	4312	-17.3
5	CC1OC23CCCCC2C(C#N)(C(=N)O3)C1(C#N)C#N (stereo not drawn)	-1.3	1.8	2.2	3.2	10.0	9106	-23.6
6	O=S(=O)(c1ccccc1)N(Cc1ccccn1)Cc1ccccn1	11.9	3.8	6.0	4.1	-0.1	3128	-9.1
7	COc1cc(/C=N/NC(=O)c2nonc2C)ccc1O	·	·	·	·	-9.7	4040	-17.0
8	O=C(O)c1ccccc1C(=O)OCc1ccccc1	-2.5	0.2	·	·	-3.6	4255	-10.9
9	CC(=O)Nc1ccc(S(=O)(=O)Oc2cccc(N3C(=O)C4CCCCC4C3=O)c2)cc1 (stereo not drawn)	2.3	9.2	4.5	6.7	0.3	5931	-23.1
10	Cc1cccc(NC(=O)c2ccc(S(=O)(=O)N3CCCCCC3)cc2)n1	-10.1	4.9	-12.1	0.5	-1.8	?	-11.6
11	Cc1ccc(-c2cc(Cc3cccs3)c(=O)[nH]n2)cc1	0.3	2.1	-0.1	2.5	2.5	·	-13.2
12	COc1ccc(N2C(=O)CC(Cc3ccccc3)C2=O)cc1 (stereo not drawn)	-11.1	6.3	0.3	6.7	15.5	5338	-22.7
13	O=C1c2ccccc2C(=O)N1CCCn1ccnc1	-5.1	-4.3	-9.9	-6.9	0.5	3039	-29.9
14	FC(F)Oc1ccc(NC(=S)Nc2ccc3cn[nH]c3c2)cc1	-1.7	1.1	·	·	-8.1	3103	-21.0
15	Cc1onc(-c2c(Cl)cccc2Cl)c1C(=O)N(C)Cc1ccccc1	9.5	5.1	-0.8	13.4	-6.9	3438	-2.0
16	COC(=O)c1ccc(C2/C(=C(/O)c3ccc4c(c3)CC(C)O4)C(=O)C(=O)N2Cc2ccncc2)cc1 (stereo not drawn)	-0.2	1.2	2.7	14.1	-4.8	5757	4.3
17	O=C(O)C(=O)Nc1ccc(NC(=O)C(c2ccccc2)c2ccccc2)cc1	10.4	3.0	8.1	5.6	2.7	3491	-4.7
18	O=C(Nc1ccccc1Br)c1cc[n+]([O-])cc1	3.6	0.4	16.0	9.1	4.8	3429	-23.0
19	COc1ccccc1CCNC(=O)c1cc(-c2ccccn2)nc2ccc(Br)cc12	5.6	2.2	8.9	-4.0	-5.8	·	·
20	O=C1C2CCCN2C(=S)N1Cc1ccccc1 (stereo not drawn)	3.5	6.4	3.1	-3.1	10.2	4229	-26.4
21	CC(=O)N1CCN(C(=O)CCc2c[nH]c3ccccc23)CC1	8.2	2.6	·	·	11.1	4154	-4.5
22	CC(C)(C)OC(=O)N1CCOCCOCCN(C(=O)OC(C)(C)C)CCOCC1	-2.1	6.0	7.6	2.9	3.3	3289	-9.2
23	CCn1c(COc2ccccc2)nnc1SCC(=O)Nc1cc(OC)ccc1OC	-8.6	2.3	1.0	8.3	-2.9	10919	6.7
24	O=C1N=C(N2CCN(c3ccccc3)CC2)S/C1=C/c1ccco1	5.3	5.9	3.3	2.1	1.3	4040	14.0
25	Cn1c(SCC(=O)OCc2ccccc2)nnc1-c1ccco1	6.5	3.6	-0.4	4.3	-2.5	?	9.4
26	NC(N)=Nc1nc2cc([N+](=O)[O-])ccc2o1	11.1	2.6	-0.8	8.9	4.9	4152	-27.1
27	O=C(O)c1ccc(C=NN2CCN(c3ccccc3)CC2)cc1	3.9	0.3	3.9	-6.9	·	·	·
28	CCN1/C(=C/C(=S)Nc2ccccc2)Sc2ccccc21	-14.1	1.2	3.1	5.4	10.9	2412	-58.6
29	COC(=O)[C@@]1(Cc2ccccc2)[C@H]2C(=O)N(C)C(=O)[C@H]2[C@H]2CN=C(SCc3ccc(Cl)cc3)N21	-7.8	4.9	-2.3	2.4	·	3530	-35.1
30	COc1ccc(/C=N/n2c(-c3n[nH]c4c3CCC4)n[nH]c2=S)c(OC)c1OC	·	·	·	·	-0.3	3440	-14.2
31	Cc1cc(Br)ccc1NC(=S)N1CCOCC1	3.8	2.5	5.6	7.5	-2.4	3362	-14.6
32	CSc1ccc(C2N=C(c3ccccc3)NO2)cc1 (stereo not drawn)	1.3	5.3	5.0	25.1	-2.1	5741	-148.1
33	Cc1cc(NC(=O)c2cnn3cccnc23)n(-c2ccccc2)n1	-3.2	3.3	10.1	5.0	0.5	19481*	-13.2
34	CN=C(C[N+](=O)[O-])NCCSCc1ccc(CN(C)C)o1	-4.3	0.9	-2.7	3.5	·	5959	-19.2
35	O=[N+]([O-])c1cccc(-n2cccc2C=NNc2nc(N3CCCCC3)nc(N3CCCCC3)n2)c1	2.0	6.2	5.1	6.3	·	·	·
36	O=C(NCc1ccccn1)c1ccc(Cl)cc1Cl	4.8	0.2	8.1	6.0	-1.8	18047*	-40.0
37	Cc1cccc(C)c1NC(=O)C(=O)NCCCN1CCOCC1	0.2	0.5	2.3	5.3	-3.7	1937	-13.4
38	CN(C)S(=O)(=O)c1cc(NC(=O)CN2CCc3ccccc32)ccc1Cl	-6.4	1.3	-6.2	5.5	-2.3	6307	-12.7
39	CC(Cn1nnc2ccccc21)=NOC(=O)c1c(F)cccc1F	2.4	5.0	8.7	9.0	·	·	·
40	Cc1cccc(CN2CCN(C(C)C(=O)NC(C)c3ccccc3)CC2)c1 (stereo not drawn)	-1.8	2.6	2.5	-6.8	-7.8	4987	-8.7
41	COC(=O)c1ccccc1NC(=O)c1cnn2c(C(F)F)cc(C3CC3)nc12	3.0	2.8	·	·	6.9	3623	2.3
42	CCOC(=O)c1nnn(-c2nonc2-n2cccc2)c1CN1CCC(C)CC1	3.7	4.6	·	·	2.2	5216	-26.3
43	Cc1cc(N/N=C2\CC(C)CC(C)(C)C2)nc2ccccc12 (stereo not drawn)	·	·	·	·	0.8	3439	-23.9
44	COc1cccc(NC(=S)N2CCc3cc(OC)c(OC)cc3C2)c1	4.5	2.9	0.2	8.5	-2.2	4068	-17.1
45	COC(=O)Cc1ccc(NC(=S)NCCSc2ccc(C)cc2)cc1	-13.0	9.2	19.2	2.3	13.2	1978	-4.3
46	CC1CCCCC1NC(=O)Cn1c(=O)oc2cc(S(=O)(=O)N3CCCC3)ccc21 (stereo not drawn)	-1.6	-0.2	7.6	9.9	14.0	5921	-11.9
47	CCOc1cc(C(=O)OCC(=O)Nc2cc(C)on2)cc(OCC)c1OCC	0.2	7.9	6.6	5.3	-0.8	22120*	-9.8
48	COC(CC=CC(O)C(C)OCc1ccccc1)OC (stereo not drawn)	-0.8&-1.0&-10.3&-13.3&-15.2	4.9&0.8&3.2&1.7&0.9	8.6&-2.1&7.5&4.8&5.5	1.7&3.1&3.1&-0.9&0.9	·	·	·
49	S=C(NCCSCc1ccccc1Cl)Nc1ccccc1	-20.0	15.0	17.0	23.3	-3.6	3207	-15.2
50	CCCNC(=O)c1cccc(Cn2cc(Br)c([N+](=O)[O-])n2)c1	12.0	14.7	5.7	10.2	10.7	2467	-16.9

2 compounds from above, reduced to Sa ugtP lethal and BJeLR viability.
No.	canonical_smiles	Sa ugtP lethal	BJeLR viability
27	O=C(O)c1ccc(C=NN2CCN(c3ccccc3)CC2)cc1	3.9	·
28	CCN1/C(=C/C(=S)Nc2ccccc2)Sc2ccccc21	-14.1	10.9

Other structures follow.
No.	canonical_smiles	Sa ugtP lethal	Sa RN4220 lethal	Mtb hypoxia rep	Mtb hypoxia rep growth	BJeLR viability	Bead autofluor	PrP UTR inh
51	C[C@]12CCC(OS(=O)(=O)O)CC1=CCC1C2CC[C@]2(C)C(=O)CCC12 (stereo partly drawn)	2.1&-3.8	4.8&4.5	6.7&-6.4	16.5&1.2	·	·	·
52	O=C(NCCc1ccccc1)C(c1ccccc1)N(C(=O)c1csnn1)C1CC1 (stereo not drawn)	1.1	1.8	-5.1	-8.2	-9.9	3597	-35.3
53	O=C(NN=CC=Cc1ccccc1)C(O)C(O)C(=O)NN=CC=Cc1ccccc1 (stereo not drawn)	6.8	5.4	5.2	2.9	·	2855	-6.1
54	C=CCn1c(SCC(=O)Nc2c(C)n(C)n(-c3ccccc3)c2=O)nc2ccccc2c1=O	1.5	2.6	12.2	2.4	·	3669	-10.0
55	CCCCN(C(=O)NC(=O)C1=C(N2CCOCC2)/C(=C/c2ccccc2)CC1)S(C)(=O)=O	11.5	-4.5	6.5	6.5	8.3	9331	2.4
56	Cc1cc(N2CCN(c3ccccc3Cl)CC2)n2cc(-c3ccccc3)nc2n1	-19.5	27.6	5.4	6.5	1.0	5415	-9.8
57	CC1(C(=O)NCCc2c[nH]c3ccccc23)C=CCN1C(=O)c1ccccc1 (stereo not drawn)	-6.3	-12.0	8.2	17.9	-4.2	2920	-16.7
58	O=C(CN1C(=O)c2cccnc2Oc2ccc(Cl)cc21)NCCC1=CCCCC1	2.1	0.6	15.2	10.4	-0.3	5527	-10.9
59	CCOC(=O)c1c(C)[nH]c(C(=O)COC(=O)c2cnc(C)cn2)c1C	4.8	0.6	·	·	-16.4	2515	-13.0
60	Cc1csc(NC(=O)CSc2nnnn2C)n1	-0.5	2.0	-1.8	2.3	-1.9	3155	-22.1
61	O=C1CCC(=O)N1CC(=O)N(c1ccccc1)c1ccccc1	2.8	7.1	11.3	8.1	-3.6	4264	-20.5
62	CCNc1nc(NC(C)C)nc(ON=C(C)C)n1	5.9	5.7	5.8	9.2	-0.4	·	·
63	Cc1c(C(=O)OCC(=O)c2ccc3c(c2)OCCO3)oc2ccccc12	11.2	9.1	·	·	-0.3	4732	-32.6
64	CCOC(=O)N1CCC(NC(=O)Cn2c3c(c(-c4ccccc4Cl)cc2=O)CCC3)CC1	-3.0	-12.0	1.9	-1.4	4.8	6019	-21.6
65	O=C(Nc1ccc(F)cc1)C1CCC(CNc2c(N3CCCCC3)c(=O)c2=O)CC1 (stereo not drawn)	4.8	5.0	4.6	2.9	5.8	3287	0.2
66	CCn1c(O)c(/C=C/C=C/C=Nc2ccccc2)sc1=S	-3.7	7.2	2.0	2.2	-0.1	4847	-40.3
67	CCOC(=O)c1c(C)[nH]c(C(=O)COC(=O)/C=C/c2cccc(OC)c2OC)c1C	6.0	3.1	7.7	5.6	-0.4	10612	-9.7
68	CCOC(=O)c1[nH]c(=O)[nH]c1COC(=O)c1cc2ccccc2o1	-2.5	0.6	·	·	-8.7	2528	-8.9

Source: PubChem
